Anaer choline gr: growth inhibitors of anaerobic choline-fed gram-negatives, minimal medium, absorbance; Gram-negative bacterium anaerobic choline minimal medium; hits give low values; many inactives read as strong as hits in the columns shown; calls only; actives 0.2% (n = 55,000);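 active means growth z-score on choline under -2 at 7 or 20 h with little or no fall on glycerol, limits in tiers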;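 further: stock transfer was 300 nL into about 50 µL; the organism is E. coli; final concentration not given here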
Anaer choline gr early: second read-out of Anaer choline gr, no call of its own (marks repeat the call); z-score; measured here: choline growth z-score, timepoint 1;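 score of optical density at 7 h as mean of two plates; lower means less growth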
An asterisk follows results filed as active; i = inactive; & = joins results of further samples.

SMILES	Anaer choline gr	Anaer choline gr early
COc1ccc(Cc2nn3c(CSc4ccccc4)nnc3s2)cc1OC	i	-0.14
CCCCC(=O)N1CCN(c2cc(=O)n(C(C)C)c(=O)n2C(C)C)CC1	i	-0.33
CCCN(CCC)S(=O)(=O)c1c[nH]c(-c2nnc(CC)o2)c1	i	-0.81
Cc1cc(N(C)C)nc(N2CCN(S(=O)(=O)c3cc(C)c(C)cc3C)CC2)n1	i	-0.26
Cc1ccc(NC(=O)c2n[nH]nc2Nc2ccccc2)c(Cl)c1	i	0.07
Cc1ccc(-c2cc(C(F)F)nc(N3CCC(C)CC3)n2)cc1	i	1.4
COc1ccc(CNC(=O)CN2C(=O)C(C)=C(c3ccc(C)c(C)c3)S2(=O)=O)cc1OC	i	-0.96
CCCCNC(=O)C1CC(=O)N(CCc2c[nH]c3ccc(C)cc23)C1 (configuration not stated)	i	0.75
COc1ccc(CCNC(=O)c2noc3ncnc(N4CCOCC4)c23)cc1OC	i	-0.07
COCCCNC1=NCCCNC12CCCCC2	i	0.19
Cc1cccc(-n2cc(C3CCN(C(=O)C(C)(C)C)CC3)cn2)c1	i	0.28
O=C(c1[nH]nc2c1CCc1ccccc1-2)N1CCC(Cc2ccccc2)CC1	i	-0.23
CCOc1c(C)cnc2c1c(=O)n(CC(=O)N1CCc3ccccc31)c(=O)n2C	i	-0.59
Cc1cc(N(C)C)nc(Nc2ccc(NC(=O)C(C)C)cc2)n1	i	1.7
CS(=O)(=O)Nc1ccc(C2(C(=O)NCc3ccc(C(F)(F)F)cc3)CCC2)cc1	i	-0.35
O=C(NC1CCCCC1)C1CCCN(c2ncnc3nn(-c4ccccc4)cc23)C1 (configuration not stated)	i	0.7
O=C(Cn1c(=O)c(C(F)(F)F)nc2ccccc21)NC1CCCCC1	i	-0.05
CC1CCN(S(=O)(=O)c2ccc(-c3nc(C#N)c(N4CCCC4)o3)cc2)CC1	i	1.4
CCc1ccc(-n2ncc3c(=O)n(Cc4nc(-c5ccc(C(C)(C)C)cc5)no4)cnc32)cc1	i	-0.11
COc1cc(C2Oc3ccc(C4Oc5cc(O)cc(O)c5C(=O)C4O)cc3OC2CO)ccc1O (configuration not stated)	i	0.39
O=C(CCC1=NS(=O)(=O)c2ccccc2N1)N1CCN(Cc2ccccc2)CC1	i	-0.99
Cc1nn(-c2ccc3nnc(C)n3n2)c2c1C(c1ccccc1OCc1ccccc1F)CC(=O)N2 (configuration not stated)	i	0.05
Cc1ccc(-c2ccc(Nc3ccc(C(=O)Nc4ccc5c(c4)OCO5)cc3)nn2)cc1	i	1.1
O=C(NC1CCS(=O)(=O)C1)c1ccc(Cn2c(=O)c3cccn3c3cccnc32)cc1 (configuration not stated)	i	1.7
O=C(c1cnc2ccccc2c1Nc1cccc(F)c1)N1CCOCC1	i	-0.23

Other entries follow.
SMILES	Anaer choline gr	Anaer choline gr early
COc1ccc(NC(=O)Cn2nc(-c3ccccc3)c3cc(Cl)ccc32)cc1	i	-0.74
Cc1onc(-c2c(F)cccc2Cl)c1C(=O)N[C@@H]1C(=O)N2C(C(=O)O)C(C)(C)S[C@H]12 (some centres not stated)	i	-0.16
COc1ccc2c(c1)CCc1c(C(=O)NC(C)C)noc1-2	i	0.8
N#Cc1c(-n2cccc2C#N)sc2c1CCCC2	i	-0.62
CCOc1ccccc1C1CC(=O)Nc2c1c(C)nn2-c1nc(C)cc(C)n1 (configuration not stated)	i	-2.1
Cc1ccc(Nc2nc(-c3nnn(-c4ccccc4)c3C)ns2)cc1	i	0.83
Cc1cccc(NC(=O)N2CCC(CN3CCCCC3)CC2)c1C	i	-0.26
CCCCCCCC/C=C\C/C=C\C/C=C\CCCC(=O)O	i	0.23
COc1ccc(CNC(=O)c2ccc(NC(=O)CN3CC(=O)N4CCCCC4C3=O)cc2)cc1 (configuration not stated)	i	-0.1
O=C(Nc1cccc(Cl)c1)Nc1ccccc1OCc1cc(=O)n2ccccc2n1	i	1.7
CC1CCN(C2=NS(=O)(=O)c3ccccc32)CC1	i	-0.42
O=C(CCc1nc(-c2ccc(S(=O)(=O)N3CCOCC3)cc2)no1)N1CCOCC1	i	1.5
Cc1ccc(S(=O)(=O)N2C(=O)CCC2C(=O)NC2CCCCC2)cc1C (configuration not stated)	i	-0.45
Cc1ccc2cc(-c3noc(CCCC(=O)Nc4nc(C)cs4)n3)c(=O)[nH]c2c1	i	-0.41
CCOC(=O)c1c(C)n(C)c2ccc(OCCN(CC)CC)cc12	i	0.59
COc1ccc(CNC(=O)C2(C)CCCN(S(=O)(=O)c3cc(OC)ccc3OC)C2)cc1 (configuration not stated)	i	-0.91
NC(=O)c1cnccn1	i	0.46&-0.28
CCOC(=O)c1ccccc1Nc1nc2ccc(C)cc2n2nnnc12	i	1.4
Nc1[nH]c(=O)ncc1F	i	-2.5&-2.2
COc1ccc(CCNc2ncc3c(n2)CC(c2ccc(C(C)(C)C)cc2)CC3=O)cc1 (configuration not stated)	i	-1.4
O=C(Nc1ccc2c(c1)OCO2)c1nnc(C2CCN(C(=O)NC3CCCCC3)CC2)s1	i	0.19
Cc1ccc(S(=O)(=O)N2CCC3(CC2)NCCN=C3NC(C)(C)C)cc1	i	0.19
Cc1ccc(S(=O)(=O)Nc2ccc(-c3ccc4ccccc4n3)cc2)cc1	i	1.5
COCCn1c(SCc2nc(-c3ccc4c(c3)OCO4)no2)nc2cc3c(cc2c1=O)OCO3	i	0.5
CC(=O)Nc1ccc(C)cc1S(=O)(=O)N1CCCC(C)(C(=O)NCc2ccccc2C)C1 (configuration not stated)	i	-0.78

In the list so far, these contain a halogen:
SMILES	Anaer choline gr	Anaer choline gr early
Cc1ccc(NC(=O)c2n[nH]nc2Nc2ccccc2)c(Cl)c1	i	0.07
Cc1ccc(-c2cc(C(F)F)nc(N3CCC(C)CC3)n2)cc1	i	1.4
CS(=O)(=O)Nc1ccc(C2(C(=O)NCc3ccc(C(F)(F)F)cc3)CCC2)cc1	i	-0.35
O=C(Cn1c(=O)c(C(F)(F)F)nc2ccccc21)NC1CCCCC1	i	-0.05
Cc1nn(-c2ccc3nnc(C)n3n2)c2c1C(c1ccccc1OCc1ccccc1F)CC(=O)N2 (configuration not stated)	i	0.05
O=C(c1cnc2ccccc2c1Nc1cccc(F)c1)N1CCOCC1	i	-0.23
COc1ccc(NC(=O)Cn2nc(-c3ccccc3)c3cc(Cl)ccc32)cc1	i	-0.74
Cc1onc(-c2c(F)cccc2Cl)c1C(=O)N[C@@H]1C(=O)N2C(C(=O)O)C(C)(C)S[C@H]12 (some centres not stated)	i	-0.16
O=C(Nc1cccc(Cl)c1)Nc1ccccc1OCc1cc(=O)n2ccccc2n1	i	1.7
Nc1[nH]c(=O)ncc1F	i	-2.5&-2.2

Next entries follow.
SMILES	Anaer choline gr	Anaer choline gr early
Cc1ccc(C(=O)N2CC(=O)Nc3ccc(Cl)cc3C2c2ccccc2)cc1 (configuration not stated)	i	-0.07
CCN1CCN(CCNC(=O)c2cnc3c(C)cccn3c2=O)CC1	i	-0.54
CCOc1ccc(CCNC(=O)c2ccc3c(c2)sc2nc(-c4cccc(OC)c4)cn23)cc1OCC	i	-0.27
COc1ccc(-c2cc(C(=O)Oc3ccc(C)c(C)c3)no2)cc1	i	0.22
O=C(CCC1=NS(=O)(=O)c2ccccc2N1)NC1CCN(Cc2ccccc2)CC1	i	-1.8
C#C[C@]1(O)CC[C@H]2[C@@H]3CCc4cc(O)ccc4[C@H]3CC[C@@]21C	i	0.83
Nc1nnc(SCc2nnc(-c3cccc(F)c3)o2)s1	i	0.38
CCCNC(=O)Cn1c2c(c(=O)n3ncnc13)CCC2	i	0.42
COCCNC(=O)CN1CCN(c2cc(C(=O)O)c3cc(NC(=O)C4CCCC4)ccc3n2)CC1	i	0.24
O=C(c1noc2c1COc1ccccc1-2)N1CCCCC1	i	-2.8
CC1Cc2cc(S(=O)(=O)CCC(=O)NCCc3ccccc3)ccc2N1C(=O)C1CC1 (configuration not stated)	i	-0.26
CN(C)c1cccc(-c2nc(-c3cccc(NC(=O)Nc4ccccc4)c3)no2)c1	i	1.2
COc1ccc(C(=O)Nc2cccc(Cl)c2C)c(OC)n1	i	0.55
COc1cccc(NC(=O)c2nc3c(=O)n(Cc4ccc(Cl)cc4)c4cc(C)ccc4n3n2)c1	i	-0.47
CCN(CC)CCCNC(=O)C1=C(C)C(=O)OC12CCN(C(C)=O)CC2	i	1.3
COc1ccc(Br)cc1-c1nc(CSc2nc(-c3ccncc3)cc(=O)[nH]2)c(C)o1	i	-0.21
COc1cccc(NC(=O)CSCc2noc(-c3ccc(C)cc3)n2)c1	i	-1.8
COCCCNC(=O)N1Cc2c(sc3c2CCCC3)-n2cccc2C1c1ccc(N(C)C)cc1 (configuration not stated)	i	0.5
CC(C)c1csc(-c2csc(S(=O)(=O)NCc3ccccc3)c2)n1	i	-0.01
Cc1ccc(-c2onc(C)c2C)cc1S(=O)(=O)Nc1cccnc1	i	0.43
Cc1ccc(C(=O)Nc2cccc(-c3ccc4ccccc4n3)c2)cc1	i	0.37
Cc1cccc(C(=O)NCc2ccc(-c3nn4cnnc4s3)cc2)c1	i	2.2
Cc1n[nH]c(C)c1S(=O)(=O)N1CCc2c(c(-c3nc(-c4ccccc4)no3)nn2C)C1	i	0.66
CCCCC(=O)Nc1ccc(Nc2nc(C)cc(NCC)n2)cc1	i	-0.27
CC(C)CCNS(=O)(=O)c1ccc2c(c1)N(Cc1noc(C3CCC3)n1)C(=O)CO2	i	0.56

(list continues)
structure	Anaer choline gr	Anaer choline gr early
COC(=O)C1=C(c2ccccc2)c2ccccc2S(=O)(=O)N1CC(=O)Nc1ccc2c(c1)OCO2	i	0.12
CCOc1ccc(CNC(=O)C2CCCN(C(=O)c3ccccc3Cl)C2)cc1 (configuration not stated)	i	0.23
CCCCCCCCCCCCCCC(=O)N[C@H]1CCOC1=O	i	0.57
Cc1ccc(CN2CCCC2c2cc(C(C)C)no2)s1 (configuration not stated)	i	-0.49
CSc1nnc(-c2nn(C)c3c2CN(C(=O)c2ccnn2C)CC3)n1C	i	-0.22
Cc1cc2n(n1)CCCN2C(=O)NCc1ccccc1	i	-0.58
COc1cccc(-n2nnc(-c3nsc(Nc4ccc(OC)c(Cl)c4)n3)c2C)c1	i	0.12
Cc1cccc(NC(=O)Cc2ccc(NC3=NC4CS(=O)(=O)CC4S3)cc2)c1 (configuration not stated)	i	1

Full records from above:
`COC(=O)C1=C(c2ccccc2)c2ccccc2S(=O)(=O)N1CC(=O)Nc1ccc2c(c1)OCO2` reads Anaer choline gr: i; Anaer choline gr early: 0.12
`CSc1nnc(-c2nn(C)c3c2CN(C(=O)c2ccnn2C)CC3)n1C` reads Anaer choline gr: i; Anaer choline gr early: -0.22

Next section:
structure	Anaer choline gr	Anaer choline gr early
CCOC(=O)c1c(C)[nH]c(C(=O)N2CCC(C(C)C(=O)NCc3ccc(F)cc3Cl)CC2)c1C (configuration not stated)	i	-1
CCC(=O)Nc1ccc(S(=O)(=O)NCc2ccc3c(c2)CCN3C(=O)c2ccc(F)cc2)cc1	i	-1.1
CCc1cc(Sc2ccc(NS(=O)(=O)c3ccc4c(c3)CCCC4)cc2)n2nc(C)nc2n1	i	0.81
Cc1ccc(-c2noc(C3CCCN3C(=O)C3CC(=O)N(c4cccc(Cl)c4)C3)n2)cc1 (configuration not stated)	i	0.94
O=C(Nc1ccc(F)cc1)c1nnc(C2CCN(C(=O)Nc3ccc(F)c(Cl)c3)CC2)s1	i	0.98
Cc1csc(-c2cc(S(=O)(=O)NC(C)(C)C)cn2CC(=O)N2CCCCC2)n1	i	-0.69
COc1ccc(C2CC(=O)N(c3ccc(Cl)cc3)C(=O)C2)cc1OC	i	-0.23
CCOC(=O)c1ccccc1NC(=O)CN1N=NC2C(=O)N(c3ccc(F)c(F)c3)C(=O)C21 (configuration not stated)	i	-0.46

(more compounds)
structure	Anaer choline gr	Anaer choline gr early
O=C(CSc1ncnc2nc(N3CCSCC3)sc12)Nc1ccc2c(c1)OCO2	i	0.6
CC1(C(=O)NC2CCCC2)Cn2c(cc3sccc32)C(=O)N1Cc1ccc2c(c1)OCO2 (configuration not stated)	i	-0.21
Cc1oc(-c2ccno2)cc1S(=O)(=O)N(C)Cc1ccccc1	i	0.73
O=c1c2ccccc2nc2c(-c3nc(-c4ccccc4)no3)cccn12	i	-0.28
Cc1cc(Nc2ccccc2)n2nc(-c3cccnc3)nc2n1	i	0.62
CCC(C)Nc1ncnc2sc(C(=O)O)c(C)c12 (configuration not stated)	i	-0.29
CCc1onc(C)c1C1CCCN1C(=O)NC1CCCCC1 (configuration not stated)	i	-0.05
Cc1ccnc(NC(=O)c2nc(-c3ccc(C)c(S(=O)(=O)N4CCCCC4)c3)no2)c1	i	-0.62

(continued)
structure	Anaer choline gr	Anaer choline gr early
O=C(Nc1ccccc1Cl)c1ccc2nncn2c1	i	-0.85
COc1cccc(NC(=O)N2CCC3(CC2)Nc2ccccc2-n2cccc23)c1	i	0.47
Cc1ccc(-c2c(-c3nn(C)c4ncnc(N5CCC(N6CCCCC6)C5)c34)cnn2C)cc1 (configuration not stated)	i	0.63
Cc1ccc(Cl)cc1N1CCN(c2ncc(NC(=O)c3ccc(F)cc3)cc2C(=O)O)CC1	i	1.2
Cc1nc(CNC(=O)[C@H]2CCCN2S(=O)(=O)c2ccc(F)c(Cl)c2)cs1	i	-1.8
CC1CCN(C(=O)c2csc(S(=O)(=O)N3CCCCC3C)c2)CC1 (configuration not stated)	i	-0.57
Cc1n[nH]c(=O)c2cc(S(=O)(=O)NC3CCCC3)cn12	i	0.25
Cc1ccc(CN2C(=O)C3CCCCC3C2=O)cc1S(=O)(=O)N1CCN(C2CCCCC2)CC1 (configuration not stated)	i	-2.2
CCOC(=O)c1c(C)n(CC)c2ccc(OC(=O)c3ccc(Br)cc3)cc12	i	-0.11
COC(=O)c1ncn2c1C(=O)N(C1CC1)C(C)(C(=O)NCCCOC(C)C)C2 (configuration not stated)	i	0.35
O=C(CCN(C(=O)c1ccc(Cl)cc1)C1CCCCC1)N1CCNCC1	i	-1

Only part of the results is shown; the hit share may differ from the screen's.
